Source: PubChem
MbtI inh: MbtI salicylate synthase inhibitors, primary screen, biochemical, fluorescence intensity; inhibition, %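 (about 17 µg/mL by stock and volumes)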; AID 493033, 2011; 100,000 tested, 0.89% active; purified MbtI enzyme, fluorescence intensity read-out; P9WFX0;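 active = above 50% in both replicates, above 80% if mildly self-fluorescent; inactive = the rest, strongly fluorescent compounds included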;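 also: 0% = mean of negative and 100% = mean of positive controls; one replicate is shown; some compounds called inactive have numbers as strong as hits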
Target sequence (P9WFX0 whole entry, looked up): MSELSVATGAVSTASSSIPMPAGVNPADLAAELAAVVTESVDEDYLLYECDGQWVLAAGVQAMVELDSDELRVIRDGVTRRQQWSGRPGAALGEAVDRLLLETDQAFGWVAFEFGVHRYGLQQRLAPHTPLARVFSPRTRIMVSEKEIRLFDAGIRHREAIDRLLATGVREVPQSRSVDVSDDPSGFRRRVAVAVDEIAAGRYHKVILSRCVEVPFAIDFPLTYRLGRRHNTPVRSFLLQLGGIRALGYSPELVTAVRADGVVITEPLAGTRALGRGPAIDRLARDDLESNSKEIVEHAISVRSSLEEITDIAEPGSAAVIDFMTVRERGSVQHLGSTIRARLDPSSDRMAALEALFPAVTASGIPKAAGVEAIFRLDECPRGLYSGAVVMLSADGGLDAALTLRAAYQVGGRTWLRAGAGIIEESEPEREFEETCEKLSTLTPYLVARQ
PV pol inh: poliovirus RdRp elongation inhibitors, primary screen, biochemical, fluorescence polarization, total intensity; Genome polyprotein (Poliovirus type 1 (strain Mahoney)), P03300; poliovirus polymerase elongation; hits give low values; % elongation, % (compound at 16.7 µg/mL); 150,000 tested, 0.66% active; AID 588519, 2011; in the data active = % elongation below about 90%; also: some results filed as inactive read as strong as hits
MenB inh: M. tuberculosis MenB inhibitors, primary screen, biochemical, absorbance; 1,4-dihydroxy-2-naphthoyl-CoA synthase (Mycobacterium tuberculosis (strain ATCC 25618 / …; 100,000 tested, 0.43% active; MenB enzyme assay, absorbance read-out; some hits fall short of the stated cut; inhibition, %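 (about 12 µg/mL by stock and volumes)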;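 active = mean of two replicates above 30%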;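 also: 0% = no compound and 100% = wells with inactive enzyme; the first replicate is given; strong numbers were not always called active; inactives centre near -10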
Target sequence (P9WNP5 whole entry, looked up): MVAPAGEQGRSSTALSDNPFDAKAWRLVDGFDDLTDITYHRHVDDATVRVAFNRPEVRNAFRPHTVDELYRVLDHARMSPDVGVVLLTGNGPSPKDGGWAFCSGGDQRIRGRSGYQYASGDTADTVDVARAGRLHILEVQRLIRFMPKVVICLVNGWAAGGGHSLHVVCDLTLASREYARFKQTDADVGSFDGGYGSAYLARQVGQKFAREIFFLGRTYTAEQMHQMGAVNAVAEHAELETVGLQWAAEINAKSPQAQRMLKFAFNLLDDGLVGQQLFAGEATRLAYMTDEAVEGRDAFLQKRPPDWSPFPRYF
PV pol inh intensity: recorded beside PV pol inh, whose call it bears; % elongation; measured here: total intensity read-out; formula for this scale not given here;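 total fluorescence in place of polarization; lower means less elongation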
Active calls of the source: *; i = inactive; · = no result given.

Each structure is followed by: MbtI inh, PV pol inh intensity, MenB inh, PV pol inh
- CC(C)c1ccc(NC(=O)Cn2c(-n3ncc(N4CCOCC4)c(Cl)c3=O)nc3ccccc32)cc1
  6, 103, -4, 103
- COc1ccc(-c2nn3c(Cc4ccc(Cl)cc4)nnc3s2)cc1OC
  -9, 104, 3, 103
- Cc1onc(-c2ccccc2Cl)c1C(=O)ONC1=NCCCC1
  9, 95, -2, 103
- CCC(C)Oc1c(Cl)cc(C#N)cc1OC (configuration not stated)
  -16, 100, -25, 102
- CC(C(=O)O)N1C(=O)CSC1=O (configuration not stated)
  -3, 101, 7, 102
- Cc1ccc(NC(=O)c2ccc3c(c2)CCO3)cc1
  0, 105, -38, 108
- CC1CCN(C(=O)COc2ncnc3ccccc23)CC1
  12, 98, 12, 104
- C[C@]12CCC(=O)C=C1CC[C@@H]1[C@@H]2C(=O)C[C@]2(C)C(=O)CC[C@@H]12
  -5, 101, 3, 100
- CCO/C=C1\C(=O)N(c2ccccc2)C(=O)c2ccccc21
  -13, 76*, ·, 80*
- N#Cc1nc(-c2ccccc2F)oc1NCCCN1CCOCC1
  114, 100, -8, 106

Given with tabs: entries from further up
Compound	MbtI inh	PV pol inh intensity	MenB inh	PV pol inh
COc1ccc(-c2nn3c(Cc4ccc(Cl)cc4)nnc3s2)cc1OC	-9	104	3	103
Cc1onc(-c2ccccc2Cl)c1C(=O)ONC1=NCCCC1	9	95	-2	103
CCC(C)Oc1c(Cl)cc(C#N)cc1OC (configuration not stated)	-16	100	-25	102
CC(C(=O)O)N1C(=O)CSC1=O (configuration not stated)	-3	101	7	102

Further structures follow.
Each structure is followed by: MbtI inh, PV pol inh intensity, MenB inh, PV pol inh
- COc1ccc2nc3oc(C(=O)N4CCN(c5cccc(C(F)(F)F)c5)CC4)cc3cc2c1
  4, 99, 0, 106
- COc1cc(C(=O)N2CCc3ccccc3C2)cc(NC(=O)c2ccco2)c1OC
  15, 107, -24, 103
- C=CCNc1nc(NCCN2CCOCC2)nc(OC)n1
  -6, 99, -15, 100
- COc1cc(SC)ccc1C(=O)NCc1ccccc1
  -11, 103, -18, 104
- CN1/C(=C\C=N\NC(=O)c2cccnc2)C(C)(C)c2ccccc21
  41, 114, i, 112
- Cn1c(=NC(=O)CCOc2ccccc2)sc2cc(Br)ccc21
  2, 106, -25, 103
- O=C(NC1CC1)c1ccc(/C=C2/Oc3ccccc3N(Cc3ccccc3F)C2=O)cc1
  -7, 100, -7, 104
- NCCCCN=C(N)N
  -5, 103, -6, 102
- Cc1ccc(C)c(S(=O)(=O)NCCCn2ccnc2)c1
  14, 100, -9, 99
- CSc1nnc(-c2nnc(SC)n2-c2ccccc2)n1-c1ccccc1
  -12, 103, 10, 101
- CC(C)(CC(=O)O)CC(=O)N1CCN(c2nc(-c3ccccc3)ns2)CC1
  -10, 96, -5, 101
- CCc1ccc2c(C)nc(NC3=NC(C)(C)C=C(C)N3)nc2c1
  -6, 103, 6, 93
- CCCc1nc2sc3c(Cl)ncnc3c2c2c1CCCC2
  0, 98, -34, 101
- COc1cccc(NC(=O)COc2ccc(C(=O)N3CCN(C)CC3)cc2)c1
  2, 98, -17, 105
- Cc1cc(C(F)(F)F)c(C#N)c(SCC(=O)c2ccc[nH]2)n1
  -8, 242, -29, 45
- Cc1ccc2c(cnn2C(=O)CCCC(=O)N2CCN(c3cccc(Cl)c3)CC2)c1
  1, 99, -6, 107
- O=C(NNc1cc(C(F)(F)F)ccc1Cl)c1ccc(=O)[nH]c1
  16, 93, -18, 101
- Cc1ccc(S(=O)(=O)C(CC(=O)c2ccco2)c2ccc(Cl)cc2)cc1 (configuration not stated)
  ·, 109, -10, 103
- CCC1CCCCN1c1cc(=O)n2ccccc2n1 (configuration not stated)
  -10, 111, -7, 107
- COC(CNC(=O)c1oc2ccc3c(c2c1C)C=CC(C)(C)O3)OC
  10, 104, -12, 101
- O=C(N1CCOCC1)N1CCN(c2ccccc2F)CC1
  2, 105, -14, 102
- CCOc1ccc(-c2cnc(N)s2)cc1
  ·, 64*, -1, 62*
- CC12CC3CC(C1)CC(CC(=O)O)(C3)C2
  -1, 104, -5, 103
- O=C(Nc1nccs1)c1ccc(-c2ccccc2C(F)(F)F)o1
  29, 102, 24, 100
- CC(C)Cn1c(=O)c2ccccc2n2c(CCC(=O)Nc3ccccc3)nnc12
  1, 100, 10, 103
- O=C(OCCN1CCOCC1)c1ccc(O)cc1
  -2, 102, -2, 100
- Cc1ccc(-c2nn(-c3ccc(C)cc3)c3c2cnc2c(F)cccc23)cc1
  -5, 109, -19, 103
- CCCCc1c(O)nc(Nc2nc(C)c3cc(C)c(C)cc3n2)[nH]c1=O
  -8, 106, -11, 100
- O=C(NC1CCCCCC1)C1CCN(S(=O)(=O)c2cccc3nonc23)CC1
  -4, 103, -2, 102
- CCC(O)C#CCN1CCN(C)CC1 (configuration not stated)
  ·, 105, -6, 98
- N#Cc1cnc(Sc2nnc(-c3cccs3)n2-c2ccc(Cl)cc2)nc1N
  3, 106, -29, 104
- COc1cccc(NC(=S)N=S(C)(=O)c2ccccc2)c1 (configuration not stated)
  -2, 104, -23, 103
- COc1ccccc1C(=O)Nc1ccc(CN2CCCCC2)cc1
  13, 99, -2, 101
- CCOC(=O)c1c(C)oc2ccc(O)cc12
  -103, 103, -32, 101
- O=C(CC1C(=O)N(Cc2ccc(F)cc2)C(=S)N1Cc1ccco1)Nc1ccc(Cl)cc1 (configuration not stated)
  4, 102, -19, 100
- CC(C)C(=O)Nc1cc(S(C)(=O)=O)ccc1Cl
  -12, 100, 4, 97
- Cc1cccc(C)c1OCc1nc2c3cnn(C)c3ncn2n1
  9, 105, 6, 106
- O=C(/C=N/O)Nc1ccc2c(c1)OCO2
  6, 150, -5, 80
- O=C(CN1CCCCCC1)Nc1ccc2c(c1)OC(F)(F)O2
  -11, 105, -14, 105
- COc1ccc(N2CCN(C(C)C(N)=O)CC2)cc1 (configuration not stated)
  -2, 120, -10, 107
- COc1nnc(-c2ccc(C)c(S(=O)(=O)N(C)C)c2)c2ccccc12
  -11, 101, -10, 102
- CCCCCSc1ncnc2nc[nH]c12
  7, 99, -1, 100
- C=CCn1c(=O)c2ccccc2n2c(SCC(=O)c3ccc(Cl)cc3)nnc12
  64, 106, 6, 100
- Cc1ccc2c(CSCc3c(C)noc3C)cc(=O)oc2c1
  22, 99, 5, 108
- O=S(=O)(Cc1ccccc1)N1CCN(CCO)CC1
  ·, 109, -4, 106
- Cn1c(=O)cc(SCC(=O)NCCCN2CCN(c3ccccc3F)CC2)c2cc(Cl)ccc21
  -6, 103, -19, 105
- O=C(COc1ccc(C2=NN(C(=O)c3cccs3)C(c3ccco3)C2)cc1)N1CCCCC1 (configuration not stated)
  4, 105, -14, 105
- Cc1noc(C)c1CON=c1c(C)nc2ccccc2nc1C
  3, 110, -7, 103
- Cc1cc(C)c2nc(NC3=NC(c4ccccc4)CC(=O)N3)nc(C)c2c1 (configuration not stated)
  -3, 104, -29, 102
- Cc1cc(C)nc(Nc2nc3ccccc3s2)n1
  -19, 103, 15, 103

Remaining list, next part
Each structure is followed by: MbtI inh, PV pol inh intensity, MenB inh, PV pol inh
- CC(C)(C)c1ccc(Oc2ccc(NC(=O)Nc3cccs3)cn2)cc1
  16, 110, 9, 107
- CS(=O)(=O)N1CCCc2cc(Br)ccc21
  -4, 102, -12, 101
- O/N=C1/CCCc2nn(-c3ccccc3)nc21
  ·, 68*, 18, 62*
- NS(=O)(=O)c1ccc(NC(=S)NC(=O)c2cccnc2)cc1
  0, 101, -6, 107
- COc1cccc(CNC(C)c2ccccc2)c1OCc1ccccc1F (configuration not stated)
  -4, 103, -4, 102
- O=C(Nn1nnnc1Nc1ccccc1)C12CC3CC(CC(C3)C1)C2
  ·, 119, -4, 108
- O=C(O)c1ccc(-c2ccc(C(=O)O)c(C(=O)O)c2)cc1C(=O)O
  11, 101, 8, 98
- O=C1CC(c2ccccc2)=Nc2ncccc2N1
  -5, 104, 10, 103
- O=C(CCc1ccccc1)NN1C(=O)c2ccccc2C1=O
  -7, 101, -15, 100
- O=C(NCC(c1ccco1)N1CCCC1)c1ccc(CSc2ncn[nH]2)cc1 (configuration not stated)
  8, 100, 20, 103
- O=C(CNC1CCCCC1)c1ccc(O)c(O)c1
  -3, 102, -3, 100
- Cc1ccc2cc3c(nc2c1)-c1ccccc1C3=NC1CCCCC1
  ·, 98, -22, 105
- Cc1ccc(-n2nc(C(=O)Nc3cccnc3)c3c4ccccc4n(C)c3c2=O)cc1
  5, 101, -7, 99
- O=C(NCC1CCCO1)c1c(O)nc2sccn2c1=O (configuration not stated)
  2, 104, 6, 99
- Cc1ccc(OCCc2nc3ccccc3[nH]2)cc1
  -11, 104, -6, 101
- COc1cccc(C(=O)N2CC(C)OC(C)C2)c1 (configuration not stated)
  -6, 102, -35, 100
- CCOC(=O)c1cnn(C(=O)OCC)c1N
  0, 101, -26, 103
- CCCOc1ccc(/C(=N\O)C(C)(C)NO)cc1
  9, 104, -21, 102
- CN(C(=O)COn1nnc2ccc(S(=O)(=O)N3CCOCC3)cc21)c1ccccc1
  0, 101, -10, 100
- CCc1ccc(NC(=O)c2ccccc2Br)cc1
  -8, 107, ·, 103
- CC1CCCC(NC(=O)COc2ncnc3ccccc23)C1C (configuration not stated)
  -11, 107, ·, 103
- CCOC(=O)C1CCCN1S(=O)(=O)c1cccc2nsnc12 (configuration not stated)
  10, 100, -19, 103
- O=c1[nH]c(CSc2nnc3n2CCCCC3)nc2scc(-c3ccccc3Cl)c12
  2, 122, 10, 112
- O=C(NCc1ccco1)c1cccc(NC(=O)c2ccc(Br)cc2)c1
  -3, 104, 1, 100
- CCCN(C(=O)/C=C/c1ccc(S(=O)(=O)N(CC)CC)cc1)C1CCS(=O)(=O)C1 (configuration not stated)
  27, ·, 10, ·
- COc1ccc(/C=N/N=C(N)N)cc1OC
  22, 101, -7, 99
- CCN(CC)CCn1c(=S)[nH]c2cc(C(=O)N3CCCC3)ccc2c1=O
  -15, 104, -21, 102
- Cc1ccc(C(=O)OCC(=O)NC2CC2)s1
  -2, 98, ·, 103
- CN1CCSc2ccc(C(=O)NCCCN3CCCCCC3)cc21
  -52, 105, -12, 101
- CN(c1ccccc1C(=O)N1CCN(c2ccccc2F)CC1)S(=O)(=O)c1ccccc1
  4, 102, -11, 100
- O=C(CCN1CCOCC1)N1N=C(c2ccccc2)CC1c1ccco1 (configuration not stated)
  13, 100, 23, 100
- Cn1ccc(NC(=O)NC(=O)c2c(F)cccc2F)n1
  -9, 107, -5, 108
- COc1ccc(/C(C#N)=C\c2ccc(-c3ccccc3Br)o2)cc1OC
  -2, 106, -46, 105
- CC(C)CN1CCNCC1
  -7, 105, 1, 101
- COc1ccc(C2=NCC(C)(C)CO2)cc1OC
  ·, 96, -24, 102
- COC(=O)C#CCN1C(=O)c2ccccc2C1=O
  66, 100, 10, 99
- COc1ccc2nc(C)cc(N3CCC(C(N)=O)CC3)c2c1
  10, 101, 11, 93
- CN1C(=O)CC(P(=O)(c2ccccc2)c2ccccc2)N(C)C1=O (configuration not stated)
  -22, 103, -34, 101
- O=C(Cc1ccccc1)N/N=C/c1ccc(N2CCOCC2)cc1
  99, 99, 12, 103
- CCOC(=O)c1sc(NC(=O)c2c(C)nn(Cc3ccccc3)c2C)cc1C
  -34, 99, -20, 100
- O=C(CCC1CCCC1)Nc1ccc2nc3n(c(=O)c2c1)CCCCC3
  -6, 107, -20, 104
- Nc1cc(=O)[nH]c(=O)n1Cc1ccccc1
  -11, 99, -14, 99
- N#Cc1cn(C2CCN(Cc3ccccc3)CC2)c(=O)[nH]c1=O
  0, 105, -7, 103
- CCNS(=O)(=O)c1ccc(S(=O)(=O)N(Cc2ccccn2)C2CCCCC2)cc1
  -13, 102, -24, 105
- Cc1ccccc1-c1nnc(SCC(=O)NC(=O)Nc2ccccc2F)n1C
  10, 105, -24, 103
- O=c1oc(-c2ccccc2)nc2c1oc1ccc(Cl)cc12
  ·, 109, -1, 101
- Fc1ccccc1N1CCN(Cc2nc(-c3ccc(Cl)cc3Cl)no2)CC1
  -22, 98, -16, 100
- Cc1ccccc1NC(=O)COC(=O)CCc1ccccc1
  -3, 105, ·, 102
- O=C(CCc1ccc(S(=O)(=O)NCc2ccccc2)cc1)N1CCCC1
  -9, 103, -5, 100
- CC(C)CNC(=O)c1ccccc1S(=O)(=O)N1CCCCC1
  94*, 126, -23, 115

Continuation.
Each structure is followed by: MbtI inh, PV pol inh intensity, MenB inh, PV pol inh
- Cc1ccc(C(C)C)c(OCC(=O)Nn2c(=O)[nH]c3ccccc3c2=O)c1
  35, 101, -11, 98
- O=C(CS(=O)(=O)c1cccc2nsnc12)N1CC(=O)N(CCc2ccccc2)C(=O)C1
  10, 104, -30, 103
- COc1ccc(N/C(C)=C/C(=O)c2ccccc2)cc1
  -3, 104, -45, 104
- N#Cc1ccc(NC(=O)COC(=O)c2ccc(F)cc2)cc1
  -17, 107, ·, 103
- O=C(NCCN1CCOCC1)c1ccc(-n2c(=S)[nH]c3ccccc3c2=O)cc1
  3, 104, -25, 104
- CC(=O)NCCc1nc2ccccc2n1CCc1ccccc1
  -9, 107, -5, 102
- Cc1cc(C)cc(NC(=O)COC(=O)C2CC3C=CC2C3)c1 (configuration not stated)
  -4, 106, -24, 107
- Cc1nn2c3ccccc3nc2c2ccccc12
  1, 102, -7, 100
- CCOC(=O)/C(C#N)=C/c1ccc(OC)cc1OC
  4, 103, -21, 105
- O=C1CN(C(=O)c2cccs2)c2ccccc2N1
  5, 100, -46, 105
- Cc1noc(C)c1COC(=O)[C@@H](NC(=O)c1ccccc1)C(C)C
  -8, 105, -7, 105
